# Bioassay records as filed in PubChem BioAssay.
# ugtP null kill = growth inhibition of ugtP-null S. aureus, primary screen, RN4220 ugtP deletion, OD600; growth inhibition, % (no concentration beside the values); AID 1259309, 2017; 16 h; some inactives read as strong as hits; hit rate 0.54% among 330,000;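 active means z-score under -3 and OD600 up to 0.15 on both plates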;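 further: plate controls were untreated wells for no effect and antibiotic for full effect; wells of about 80 µL received 100 nL stock; the first replicate is given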
# Sa RN4220 lethal = growth inhibition of S. aureus RN4220, primary screen, OD600. 16 h. inhibition, % (no concentration beside the values). hit rate 0.33% among 330,000;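 active means z-score of -3 or lower and OD600 up to 0.18 on both plates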;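 further: plate controls were untreated cells for no effect and reference antibiotic for full effect; stock transfer was 100 nL into about 80 µL; one replicate is shown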
# BJeLR viability = MLPCN primary cell-based screen for lethality selective to Ras in HRASV12 cells. BJeLR (HRASV12) viability, CellTiter-Glo ATP luminescence, 48 h; reference of the scale not given here. inhibition, % (concentration not given with the values). hit rate 0.17% among 300,000. AID 1554, 2009;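 active means replicate mean above 50%; inconclusive means above 50% but judged a plate artefact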;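 further: 50 nL library stock added to about 25 µL; numbers are from one replicate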
# PrP UTR inh = inhibition of PrP 5' UTR reporter expression. cell-based PrP 5' UTR mRNA reporter, plate reader. inhibition, % (concentration not given with the values). hit rate 0.35% among 340,000. AID 488862, 2010;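 active means every replicate at 50% or more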;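 further: 0 = median of the neutral control wells; tested in H4 reporter cells; numbers are from one replicate; inactives centre near -14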
# Autofluor counter = compound fluorescence in toxin protease inhibitor counterscreen; compound autofluorescence counterscreen, microsphere flow cytometry; stronger effect = higher value; fluorescence intensity (no concentration beside the values); hit rate 3.1% among 360,000;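 active means at least 3 SD above the mean of all compounds, about 16000 in these data; inconclusive means too few beads counted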;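 further: 100 nL of 1 mM stock went into each well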
# Mtb hypoxia inh = PubChem AID 1159583; M. tuberculosis hypoxia-regulated fluorescent reporter, fluorescence; fluorescence inhibition, % (concentration not given with the values); hit rate 0.1% among 300,000;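 active means 35 to 45% if threefold the growth effect, above 45% if 1.5-fold the growth effect; inactive means the rest, general growth blockers included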;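 further: wells of about 50 µL received 100 nL stock; 0% = vehicle wells and 100% = reference inhibitor wells; whole bacteria with a GFP reporter of the hypoxia response; strong numbers were not always called active; many hits fall short of the cut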
# Mtb hypoxia inh growth = further read-out of Mtb hypoxia inh, marked with its call; growth inhibition, %; measured here: M. tuberculosis growth (absorbance);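 0% = vehicle and 100% = reference antibiotic; read after six days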
# * hit, by the source's call; ? = inconclusive; . = no result given.
SMILES,ugtP null kill,Sa RN4220 lethal,BJeLR viability,PrP UTR inh,Autofluor counter,Mtb hypoxia inh,Mtb hypoxia inh growth
O=C(CSc1cccc[n+]1[O-])Nc1ccccc1C(F)(F)F,8.5,3.7,.,-16.8,3090,9.1,6.6
CC(=O)c1ccccc1NC(=O)COC(=O)/C=C/c1ccc(C)o1,9.3,8.8,-1.8,-27.6,4289,5.8,12.6
CCC1CCCCN1CC(C)(C)NS(=O)(=O)c1ccccc1 (stereo unspecified),-0.6,4.4,9.7,8.3,3346,5.3,6.2
COC(=O)C1=C(C)OC(N)=C(C#N)C1C1CCCCC1 (stereo unspecified),0.7,4.3,-4.6,-13.0,8910,6.2,6.0
Cc1ccc(CN2CCc3[nH]c(=S)[nH]c(=O)c3C2)cc1,1.4,-1.5,6.7,-7.7,6088,2.0,-8.3
COc1ccc(NC(=O)C2CCCN2C(=O)NC2CCCCC2)cc1OC (stereo unspecified),-5.4,-0.7,-1.6,-11.8,9177,-2.8,-1.5
Cn1c(COc2ccc(Cl)cc2)nc2ccccc2c1=O,3.8,5.2,-8.6,-8.0,4630,17.2,6.1
CCOc1ccc(N2C(=O)CC(N(Cc3ccco3)C(=O)CCC(=O)O)C2=O)cc1 (stereo unspecified),6.2,0.5,-1.2,-7.4,4482,0.8,6.8
COc1ccccc1Nc1ccncc1[N+](=O)[O-],2.4,7.2,-9.0,-17.9,2057,7.1,15.6
CNC(=O)c1ccc(CNC(=O)OCc2ccccc2)cc1,9.4,0.7,-12.9,2.5,3804,7.2,12.9
Cc1cccc(N(CC(=O)N2CCc3ccccc3C2)S(C)(=O)=O)c1C,0.3,6.0,-17.3,-3.5,4219,-2.4,2.5
Cc1ccc(OCCNC(=O)CCNS(=O)(=O)c2ccc(Br)cc2)cc1,11.6,2.5,1.7,-0.4,4255,-1.5,-6.9
CCc1c(C)[nH]n(-c2nc(-c3cccc([N+](=O)[O-])c3)cs2)c1=O,-16.1,32.3,1.5,-19.1,8741,-0.1,2.9
O=[N+]([O-])c1ccc(-c2cn(-c3ccccc3)c(=S)[nH]2)cc1,.,.,-7.9,-31.6,7504,.,.
COc1cc2[nH]c(=S)nc(NCc3ccc(C)cc3)c2cc1OC,-0.6,5.2,-7.0,-3.4,4081,9.9,-0.8
C=CCNc1cc(=O)n(Cc2ccccc2)c(=O)[nH]1,6.9,5.1,-6.6,5.8,4163,-6.6,7.3
O=C(N/N=C/c1ccc2c(c1)OCO2)C(=O)N1CCCC1,.,.,-6.1,-40.4,4459,.,.
O=C(N/N=C/C=C/c1ccco1)c1cccnc1,.,.,1.5,-32.9,7709,.,.
O=S(=O)(c1ccccc1)[C@@]1(c2ccccc2)CC2ON=C(c3cccc(Br)c3)C2C1 (stereo partly specified),10.4,-7.9,.,.,.,13.1,11.2
CCCCCCCCCCS(=O)(=O)NN=Cc1ccc(O)cc1,71.7,8.1,.,.,.,-11.4,-8.8
O=C(Nc1ccccc1)OC1CC2CC1C1CCCC21 (stereo unspecified),4.6,7.5,22.1,-123.2,4663,11.1,2.9
Cc1ccccc1OCCCC(=O)Nc1nncs1,-4.8,1.5,-3.0,21.1,4070,2.3,4.6
O=C(Cc1ccccc1)Nc1ccccc1C(=O)Nc1ccccc1,10.4,4.8,-6.2,-9.3,9401,7.3,5.2
CCOc1ccc(NC(=S)NC(=O)c2cncc(Br)c2)cc1,13.6,2.4,7.0,4.7,4265,23.7,30.8
COc1ccc(C(=O)NCc2nc(C)c(C)s2)cc1OC1CCN(C(C)C)CC1,1.9,2.6,-8.0,-21.7,5908,9.9,1.0

# Reprinted from the part before: 5 entries, followed by the next part.
SMILES,ugtP null kill,Sa RN4220 lethal,BJeLR viability,PrP UTR inh,Autofluor counter,Mtb hypoxia inh,Mtb hypoxia inh growth
O=C(Nc1ccccc1)OC1CC2CC1C1CCCC21 (stereo unspecified),4.6,7.5,22.1,-123.2,4663,11.1,2.9
Cc1ccccc1OCCCC(=O)Nc1nncs1,-4.8,1.5,-3.0,21.1,4070,2.3,4.6
O=C(Cc1ccccc1)Nc1ccccc1C(=O)Nc1ccccc1,10.4,4.8,-6.2,-9.3,9401,7.3,5.2
CCOc1ccc(NC(=S)NC(=O)c2cncc(Br)c2)cc1,13.6,2.4,7.0,4.7,4265,23.7,30.8
COc1ccc(C(=O)NCc2nc(C)c(C)s2)cc1OC1CCN(C(C)C)CC1,1.9,2.6,-8.0,-21.7,5908,9.9,1.0
COn1cnnc1-c1ccccc1,5.5,6.3,2.0,-7.7,3747,.,.
O=C(c1ccccc1)c1nn(-c2ccccc2)c(=O)cc1C(F)(F)F,51.2,-3.7,3.9,-8.8,4730,.,.
O=C(CSc1ncnc2sccc12)Nc1ccccc1F,5.6,-3.5,1.7,-15.8,4422,-2.3,2.4
CSCC(=O)N1CCC(CCC(=O)NC2CC2)CC1,-2.6,-0.5,-6.3,-3.6,5513,-11.6,0.9
Cc1ccc(O)c(C=NNC(=O)Cc2ccc(Cl)cc2)c1,4.3,0.9,.,.,.,-1.6,-6.9
CC(C)c1nnc(NC(=O)CSc2nc3ccccc3s2)s1,-1.0,0.6,.,-15.9,20149*,5.9,3.9
CCN(CC)C(=O)c1sc(NC(=O)c2cccc([N+](=O)[O-])c2)c(C#N)c1C,4.9,5.5,12.8,-17.9,2028,10.9,8.4
Cc1ccc(N(Cc2cc(=O)[nH]c3ccccc23)C(=O)c2ccco2)cc1,-10.0,3.7,1.2,-4.0,23679*,11.9,1.9
O=C(NCCc1ccccn1)c1ccc(OC2CCN(CCc3ccccc3)CC2)cc1,4.4,0.7,7.5,-63.8,5213,3.3,-1.0
COc1ccc(-n2cnc3scc(-c4ccccc4)c3c2=O)cc1,7.9,2.7,-11.1,3.8,2184,0.9,-2.4
CCOc1ccc(N(CC(=O)Nc2cc(Cl)ccc2C)S(C)(=O)=O)cc1,12.4,2.6,-0.2,-26.2,3699,15.6,8.0
O=C(NCc1cccs1)Nc1cc(Cl)ccc1Cl,-2.6,-1.4,3.2,-10.5,2008,5.9,17.9
Cc1cccc(C=NNC(=O)c2ccc(Cl)cc2)c1O,73.4,92.6*,.,.,.,17.5,-6.7
O=C1C2C3C=CC(C3=C3CCCCC3)C2C(=O)N1c1ccccc1 (stereo unspecified),0.3,-2.9,-3.7,-12.0,2869,4.2,4.9
NC(=O)CN1CCN(CCN2C(=O)c3cccc4cccc(c34)C2=O)CC1,-1.1,-3.0,-4.0,-13.9,4758,-8.4,-20.4
CCn1cc(Cl)c(C(=O)N2N=C3/C(=C/c4cccs4)CCCC3C2c2cccs2)n1 (stereo unspecified),1.7,3.6,4.3,-11.0,23292*,-3.2,7.8
CCOc1ccc(NC(=O)c2cc(C)nc3ccccc23)cc1,0.2,1.5,-4.3,-4.9,2212,3.4,4.6
Cc1sc(NC(=O)c2ccco2)c(CN2CCN(c3ccccc3)CC2)c1C,1.8,-4.9,-2.7,-19.8,20298*,.,.
Cc1ccc(NC(=O)c2nnn(CC(=O)Nc3ccccc3)c2N)cc1C,-1.6,-0.1,7.7,-0.3,4835,.,.
CC(C)OCCCNC(=O)c1ccc(NC(=O)C2=CSCCO2)cc1,0.8,1.9,-10.1,-11.3,6296,3.6,9.0
CCOC(=O)c1c(C)nc2ncccn12,7.6,7.5,-6.6,-23.2,3406,8.0,11.9
Cc1c(C(=O)N2CCN(C(=O)c3ccccc3)CC2)oc2ccc(F)cc12,-0.3,-0.8,.,-15.0,3904,13.3,7.2
Nc1nc(CSc2nc3ccccc3[nH]2)cs1,8.9,4.7,-5.2,-12.0,2394,.,.
CN1C(=O)C(Cc2cnc[nH]2)NC1=S (stereo unspecified),8.2,4.1,2.4,-10.6,3498,-6.0,2.3
COc1ccc(S(=O)(=O)N2CCOCC2)cc1NC(=O)Cc1coc2cc(C)ccc12,-3.6,1.4,.,-20.1,5988,-3.9,1.5

# Next part:
SMILES,ugtP null kill,Sa RN4220 lethal,BJeLR viability,PrP UTR inh,Autofluor counter,Mtb hypoxia inh,Mtb hypoxia inh growth
CCOc1ccc(S(=O)(=O)Nc2ccc(F)cc2)c(C)c1C,-17.0,3.5,15.2,-17.9,10454,3.4,3.7
CC(C(=O)Nc1ccccc1-c1ccccc1)N1CCN(S(=O)(=O)c2ccccc2)CC1 (stereo unspecified),-21.5,6.7,-7.4,-14.1,2084,-7.2,4.5
CCC(C)C(=O)Nc1cc(C(=O)OC)ccc1C(=O)OC (stereo unspecified),-6.3,-4.0,1.4,-18.3,11242,-5.5,-0.6
CCOC(=O)c1c(C)[nH]c(C(=O)NN=Cc2cccc(OC)c2)c1C,-2.3,1.4,.,.,.,6.0,-0.7
Cc1ccc([N+](=O)[O-])cc1NC(=O)c1c(-c2ccccc2)noc1C,0.1,6.6,-1.4,7.8,4178,4.1,-3.4
Cc1ccc(N2C(=O)CC(NNc3nc4ccccc4s3)C2=O)cc1 (stereo unspecified),-2.4,0.2,-2.7,-21.7,2339,-0.9,4.8
CCc1nc2ccc(F)cc2c(C(=O)NC2CCCCC2C)c1C (stereo unspecified),-2.4,3.5,-2.6,-29.4,?,17.6,7.4
COc1ccc(CCNC(=O)Cc2ccc(Cl)cc2)cc1OC,0.8,6.9,-2.1,-20.2,3752,9.7,6.0
CCC(C)NS(=O)(=O)c1ccc(NS(=O)(=O)c2ccccc2[N+](=O)[O-])cc1 (stereo unspecified),8.8,5.1,-16.4,-50.4,3889,2.6,-2.0
COC(=O)c1cccc(NS(=O)(=O)c2ccc(OC)c(C(=O)N3CCOCC3)c2)c1C,13.7,3.9,0.5,-15.4,4092,-8.0,1.6
CCC(C)NC(=O)c1ccccc1C(=O)NC(C)CC (stereo unspecified),10.0,4.2,-10.8,-14.9,24599*,9.6,8.3
CN(C)/C=C/C(=O)c1ccc(N2CCN(c3ncc(C(F)(F)F)cc3Cl)CC2)cc1,7.8,17.4,-1.0,-12.3,3191,-9.6,3.3
COc1ccc(CNc2nccs2)cc1,-0.3,-1.0,-7.1,-4.8,.,3.4,-4.5
CCOc1ccc(OCC(=O)Nc2cc3c(cc2C(=O)O)OCCCO3)cc1,.,.,-20.2,-22.6,3518,.,.
c1ccc(COc2ccc(-c3csnn3)cc2)cc1,1.5,5.7,-9.7,-79.9,2549,14.6,9.1
O=C(NCC(c1ccco1)N1CCCC1)c1ccc(Cl)cc1 (stereo unspecified),4.9,-0.5,4.6,-12.1,.,.,.
Cc1ccccc1COC(=O)c1cc([N+](=O)[O-])ccc1N1CCOCC1,3.7,2.9,2.8,-6.4,4132,4.0,-6.3
O=C(NNS(=O)(=O)c1ccc(Br)cc1)c1cccs1,.,.,-7.0,-6.2,4764,.,.
CC(=NNC(=O)c1ccc2c(c1)OCCO2)c1ccccc1,-0.1,2.3,.,.,.,12.4,0.0

# Retrieved by structure from above (two):
SMILES,ugtP null kill,Sa RN4220 lethal,BJeLR viability,PrP UTR inh,Autofluor counter,Mtb hypoxia inh,Mtb hypoxia inh growth
O=C(c1ccccc1)c1nn(-c2ccccc2)c(=O)cc1C(F)(F)F,51.2,-3.7,3.9,-8.8,4730,.,.
C=CCNc1cc(=O)n(Cc2ccccc2)c(=O)[nH]1,6.9,5.1,-6.6,5.8,4163,-6.6,7.3
